Arbovirus anti = antivirals against arbovirus infection; arbovirus infection cell-based antiviral screen; inhibition, % at 10 µM; 0.37% of 200,000 active;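 active means inhibition from about 30%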;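 further: bluetongue infection of BSR cells; cell survival read as ATP light after 72 h; 0% = infected wells without compound and 100% = uninfected wells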
Mtb H37Rv = M. tuberculosis H37Rv growth inhibitors, H37Rv strain (AID 1626). M. tuberculosis H37Rv growth inhibition; higher % means a stronger effect. inhibition, % at 10 µM; hits with a dose series show IC50 in µM. 0.95% of 220,000 active;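 active means confirmed in a dose series; inconclusive means inhibition above 80% but not taken into the dose series; inactive means below 80% or under 30% at every dose of the series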;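 further: bacteria incubated seven days before Alamar blue readout; 0% = bacteria only wells and 100% = bacteria with antibiotic wells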
Mtb betalactam = beta-lactam sensitization of Mtb H37Rv | M. tuberculosis H37Rv growth with meropenem, percent inhibition; hits of this screen are not shown here | inhibition, % at 25 µM | 0.27% of 330,000 active | AID 434955;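 active means about 74% or more and at least 40 points above the plate without the antibiotic, then above 30% in a dose series; inconclusive means first-round hits that could not be retested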;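 further: growth measured after seven days incubation then overnight dye step; 0% = bacteria only wells and 100% = bacteria with antibiotic; twin plates without the antibiotic show which effects depend on it; some results filed as inactive read as strong as hits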
YopH PTP inh = inhibitors of Yersinia enterocolitica YopH tyrosine phosphatase. fluorescence Ex485/Em525. inhibition, %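 (about 10 µM by stock and volumes)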. 0.16% of 140,000 active. AID 898;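 active means inhibition of 50% or more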;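 further: controls were vehicle for no effect and minimum signal wells for full effect; inactives centre near -20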
RecA splice inh = inhibitors of M. tuberculosis RecA intein splicing; 0.75% of 290,000 active; AID 2221; cell-free RecA intein splicing, fluorescence; inhibition, %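 (about 9 µM by stock and volumes)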; P9WHJ3; in the data active means inhibition above about 30%; inconclusive means no clear call, values can overlap the other calls;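 further: 0% = vehicle wells and 100% = reference inhibitor control wells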
Target sequence (P9WHJ3 whole entry, looked up, canonical isoform): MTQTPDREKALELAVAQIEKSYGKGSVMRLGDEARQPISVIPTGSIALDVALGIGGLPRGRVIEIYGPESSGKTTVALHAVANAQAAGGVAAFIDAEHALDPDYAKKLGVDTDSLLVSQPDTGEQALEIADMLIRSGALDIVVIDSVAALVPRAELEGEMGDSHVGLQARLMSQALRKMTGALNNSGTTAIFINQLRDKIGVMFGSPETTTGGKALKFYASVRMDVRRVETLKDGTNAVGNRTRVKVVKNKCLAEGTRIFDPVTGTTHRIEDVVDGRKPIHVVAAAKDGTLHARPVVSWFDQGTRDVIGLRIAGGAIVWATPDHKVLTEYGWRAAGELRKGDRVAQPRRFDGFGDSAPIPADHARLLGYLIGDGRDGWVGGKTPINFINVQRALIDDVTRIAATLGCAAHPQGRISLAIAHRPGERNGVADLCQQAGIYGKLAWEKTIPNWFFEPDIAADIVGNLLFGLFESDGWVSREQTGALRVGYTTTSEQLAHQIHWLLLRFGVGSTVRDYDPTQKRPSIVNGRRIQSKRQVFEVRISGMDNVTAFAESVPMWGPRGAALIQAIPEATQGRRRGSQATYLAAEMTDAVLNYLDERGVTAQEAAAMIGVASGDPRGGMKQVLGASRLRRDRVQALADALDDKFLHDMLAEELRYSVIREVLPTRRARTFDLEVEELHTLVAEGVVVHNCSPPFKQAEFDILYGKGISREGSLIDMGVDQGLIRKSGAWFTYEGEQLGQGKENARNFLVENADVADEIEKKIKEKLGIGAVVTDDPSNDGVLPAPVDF
Arbovirus anti repeat = also measured in Arbovirus anti; calls as there; inhibition, %; measured here: 10K subset replicate screen; many hits read low in the repeat;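 first of two repeat runs on a subset; 0% = infected and 100% = uninfected wells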
The depositor's hits bear a star; u = inconclusive; x = no result given.

SMILES	Arbovirus anti	Mtb H37Rv	Mtb betalactam	YopH PTP inh	RecA splice inh	others
COc1cccc(/C=C2\Oc3cc(OCC(=O)N4CCCC4)ccc3C2=O)c1OC	x	x	5	x	0.4
COC(=O)c1ccccc1Sc1snnc1C	0	8%	-2	x	7.5
C=CCc1cccc(/C=N/NC(=O)C[n+]2ccccc2)c1O	x	x	u	x	-2.4
CCOc1ccccc1NC(=O)C1=C(C)NC(=O)NC1c1cccc(OC)c1OC (stereo not drawn)	4	-6%	-7	-43	-0.2
Cc1ccc(-c2nn(-c3ccccc3)cc2C(=O)Nc2ccc(C(=O)O)cc2)cc1	-2	9%	0	x	0.1
Cc1ccc2cc(C)c(SCC#N)nc2c1	-17	0%	7	-44	-3.2
CCOc1ccc(C(=O)Nc2ccc(CN3CCOCC3)cc2)cc1Cl	x	x	-2	x	-0.3
Cc1cc(O)c(C(C)C)cc1N=Cc1cc([N+](=O)[O-])ccc1O	x	9%	21	x	-1.8
CCN(CC)S(=O)(=O)c1ccc(/C=C/C(=O)N(c2ccccn2)C2CCCCC2)cc1	-2	-6%	-7	x	x
CCCN1C(=O)/C(=C/c2c(NCCCOC(C)C)nc3c(C)cccn3c2=O)SC1=S	8	0%	-6	-33	-1.4
CCC(C)c1ccc(OCC(=O)Nc2ccc(Cl)cn2)cc1 (stereo not drawn)	14	-3%	79	-14	1.3
CCOC(=O)c1cc2c(ccn2C)n1Cc1cc(C)ccc1C	0	-2%	-1	-67	11
CC1CCC2(CC1)NC(=O)N(CC(=O)c1ccc[nH]1)C2=O (stereo not drawn)	-1	-4%	-12	3	-0.5
COCCn1c(CN2CCN(C)CC2)nc2c1c(=O)n(C)c(=O)n2C	15	3%	x	x	x
S=C(NCCCc1ccccc1)Nc1ccc(Cl)cc1	-40	60%	70	-5	12
CN(C)S(=O)(=O)c1cccc(C(=O)Nc2ccccc2)c1	4	-1%	-2	x	2.9
O=c1c2ccccc2c(C=NC2CCN(Cc3ccccc3)CC2)c(O)n1Cc1ccc2c(c1)OCO2	-4	6.4µM*	74	x	4.5
Cc1cc(C)c(NC(=O)C2CSCCS2)c(C)c1 (stereo not drawn)	4	-8%	56	-6	-0.3
O=C1c2ccccc2C(=O)N1CCCc1c[nH]c2ccc(Cl)cc12	-10	5%	-5	-33	2.2
O=C(CCN1CCc2ccccc21)c1ccc2c(c1)OCCO2	-2	5%	7	-8	-4.8
CC1CCCCC1NC(=O)c1cc(=O)[nH]c2ccccc12 (stereo not drawn)	x	x	-3	x	-1.8
Cc1ccc(C(=O)NC2CCS(=O)(=O)C2)cc1S(=O)(=O)N1CCCC1 (stereo not drawn)	x	x	1	x	-0.5
CC(=O)N1CCN(S(=O)(=O)c2cccc(C(=O)OCN3C(=O)c4ccccc4C3=O)c2)CC1	x	x	-11	x	-1.8
CCOC(=O)C1CCCc2c1[nH]c1ccc(Cl)cc21 (stereo not drawn)	7	11%	30	x	4.2
COc1ccc(CNC(=O)c2cccs2)cc1	9	2%	17	4	6.3

An excerpt from above in order of count of non-hydrogen atoms, rising.
SMILES	Arbovirus anti	Mtb H37Rv	Mtb betalactam	YopH PTP inh	RecA splice inh	others
Cc1cc(C)c(NC(=O)C2CSCCS2)c(C)c1 (stereo not drawn)	4	-8%	56	-6	-0.3
CCOC(=O)c1cc2c(ccn2C)n1Cc1cc(C)ccc1C	0	-2%	-1	-67	11
CCCN1C(=O)/C(=C/c2c(NCCCOC(C)C)nc3c(C)cccn3c2=O)SC1=S	8	0%	-6	-33	-1.4

Entries listed so far with four or more nitrogen atoms (2):
SMILES	Arbovirus anti	Mtb H37Rv	Mtb betalactam	YopH PTP inh	RecA splice inh	others
CCCN1C(=O)/C(=C/c2c(NCCCOC(C)C)nc3c(C)cccn3c2=O)SC1=S	8	0%	-6	-33	-1.4
COCCn1c(CN2CCN(C)CC2)nc2c1c(=O)n(C)c(=O)n2C	15	3%	x	x	x

(more compounds)
SMILES	Arbovirus anti	Mtb H37Rv	Mtb betalactam	YopH PTP inh	RecA splice inh	others
Cc1ccc(O)c(NC(=O)c2cc3nc4c(c(C(F)(F)F)n3n2)CCc2ccccc2-4)c1	-5	3%	4	-31	-1.5
COc1ccc(CNC(=O)CN(Cc2ccc(OC)cc2)C(=O)CCC(=O)Nc2ccccn2)cc1	x	x	-4	x	1.9
COc1ccc(OC)c(-n2cnc3cc(C(=O)NCCCN4CCOCC4)ccc32)c1	1	-11%	-3	-7	4.7
COC(=O)c1cc(Nc2cc(C)nc3ncnn23)cc(C(=O)OC)c1	-4	x	1	-15	1.1	Arbovirus anti repeat=1
Cc1nc2cc(-c3ccc(Br)cc3)[nH]n2c(=O)c1Cl	x	x	14	x	-2.1
COc1ccc(CNC(=O)C(NC(C)=O)C(=O)Nc2ccc(OC)cc2)cc1 (stereo not drawn)	1	x	-7	-26	1.5
NC(=O)CCSC(=S)N1CCOCC1	-2	1%	9	x	-2.0
Cc1ccccc1CN(C)CC(=O)Nc1ccccc1Oc1ccccc1	-8	7%	13	-13	27
CCCCn1c(O)c(C(C)=Nc2cccc(C(=O)O)c2)c(=O)[nH]c1=O	1	-5%	0	-3	x
C/C(CCC1CC(C)OC1=O)=N/Nc1nc(-c2ccccc2)cs1 (stereo not drawn)	-10	3%	-1	-18	-4.3
O=C(Nc1cccc(NC(=O)c2cccs2)c1)c1ccc2c(c1)OCCO2	-27	4%	-3	x	6.6
C(=N\N1CCOCC1)/c1nc(-c2ccccc2)n2ccccc12	0	-2%	-5	x	-2.0
CCCCSc1nc2sc3c(c2c(=O)[nH]1)CC(C)(CC)OC3 (stereo not drawn)	x	x	-10	x	-1.0
Cn1cc(S(=O)(=O)Nc2cccc(F)c2)c(=O)n(C)c1=O	-1	0%	4	-45	0.4
CCCC[C@H]1COCCS(=O)(=O)N1Cc1ccc(Br)cc1	x	x	-7	x	4.9
CSC1=N/C(=C\c2ccc(F)cc2)C(=O)S1	-6	-2%	4	-111	-0.3
CCOC(=O)CSc1nc(COc2ccccc2)nc2ccccc12	x	x	1	x	3.0
CC(C)NC(=O)CSc1nnc(-c2ccc(S(=O)(=O)N3CCCC3)cc2)n1CC1CCCO1 (stereo not drawn)	2	-8%	0	-54	2.0
COc1ccccc1C1Nc2ccccc2NC2=C1C(=O)CC(C)(C)C2 (stereo not drawn)	x	x	2	x	-2.2
COc1ccccc1CNc1ccc(N2CCCCC2)cc1	-7	-5%	14	7	2.5
CCOc1cc(NC(=O)c2ccco2)c(OCC)cc1NC(=O)Cc1ccc(OC)c(OC)c1	-4	5%	15	-22	-2.7
O=C(Cn1c(=O)n(CC(=O)N2CCCCC2)c(=O)c2sccc21)NCc1ccccc1	x	x	0	x	2.5
CCOc1ccc(CN(C)C(=O)Cc2c[nH]c3ccccc23)cc1	x	x	-1	x	-1.4
CCc1noc(C)c1C(=O)Nc1cc(S(=O)(=O)N2CCOCC2)ccc1OC(C)C	x	x	-3	x	-0.8
CC(C)(C)c1ccc(C2=CSC3=NCCN23)cc1	x	x	-12	x	1.2

The final 4 compounds of the section above lead into the next:
SMILES	Arbovirus anti	Mtb H37Rv	Mtb betalactam	YopH PTP inh	RecA splice inh	others
O=C(Cn1c(=O)n(CC(=O)N2CCCCC2)c(=O)c2sccc21)NCc1ccccc1	x	x	0	x	2.5
CCOc1ccc(CN(C)C(=O)Cc2c[nH]c3ccccc23)cc1	x	x	-1	x	-1.4
CCc1noc(C)c1C(=O)Nc1cc(S(=O)(=O)N2CCOCC2)ccc1OC(C)C	x	x	-3	x	-0.8
CC(C)(C)c1ccc(C2=CSC3=NCCN23)cc1	x	x	-12	x	1.2
Cc1nn(-c2ccccc2)c(N2CCCC2)c1/C=N/n1cnc2scc(-c3ccccc3)c2c1=O	-3	3%	45	-10	-2.7
COc1ccccc1CNC(=O)c1cc2ccccc2o1	x	x	2	x	3.4
Cc1ccc(/C=N/Nc2nnc(Cl)c3ccccc23)cc1	22	1%	6	-10	-1.2
CCOC(=O)c1ccc(N2Cc3ccccc3C2=NC(=O)c2cccs2)cc1	-3	u	x	-15	x
CC1CCN(CCCNS(=O)(=O)c2ccc3c(c2)CCN3C(=O)C2CC2)CC1	x	x	-2	x	0.4
O=C(Nc1ccccc1C(=O)NCCCn1ccnc1)c1ccccc1	-4	1%	-14	10	0.2
COc1nc(-c2ccccc2)ccc1-c1noc(-c2cccnc2)n1	-10	-5%	78	-37	-1.8
CCCCn1c(N)c(N(CCOC)C(=O)C2CCN(S(=O)(=O)c3ccc(C)c(C)c3)CC2)c(=O)[nH]c1=O	x	x	2	x	-16
COc1ccccc1C(=O)NCCC(=O)N(Cc1ccco1)Cc1cccs1	x	x	4	x	1.1
COC(=O)c1ccccc1NC(=S)NC(=O)c1ccc2ccccc2c1	11	-7%	-3	-26	5.4
COc1cc(/C=C2\NC(=O)NC2=O)cc(Br)c1OC	x	x	-2	x	-0.6
CCN(C(=O)COC(=O)c1cccs1)c1c(N)n(Cc2ccccc2)c(=O)[nH]c1=O	x	x	-6	x	1.2
CCOC(=O)c1c(C)nc(-c2ccccc2)nc1N	-4	-2%	-22	9	-3.5
Cc1csc(Nc2nc(N)c(C(=O)Nc3ccccc3)o2)n1	x	x	0	x	0.8
COc1ccc(N2CCN(c3oc(-c4ccc(OC)c(OC)c4)nc3C#N)CC2)cc1	4	-5%	-11	-1	0.5
C=CCOC(=O)C1=C(C)N(C)C(=O)NC1c1cc2c(cc1Br)OCO2 (stereo not drawn)	3	2%	-14	-29	2.7	Arbovirus anti repeat=-8
COc1cc(CN(C)Cc2cc(=O)n3ccsc3n2)ccc1OC(F)F	8	-1%	-6	x	-1.2
CCOc1cc(/C=C/c2nc3ccccc3c(=O)[nH]2)ccc1O	x	x	-3	x	-2.2
COc1ccccc1-c1cn[nH]c1-c1ccc(OCC(=O)NN)cc1O	x	x	-2	x	-1.7

These rows are one share of the data. The share of hits here may be higher or lower than overall.
